# High-throughput results as filed in PubChem.
# CSC inhib: cancer stem cell viability inhibitors, primary screen, luminescence; cancer stem cell-like cells viability; inhibition, % at 7.5 µM; hit rate 1.1% among 300,000; AID 2717, 2010;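 active = mean at 75% or more and at least half the replicates too; inconclusive = mean and replicates disagree; tested in HMLE shEcad cells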;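 also: 0% = median of negative and 100% = median of positive control wells; the first replicate is given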
# Yeast UUG start: modulators of yeast start codon fidelity, primary screen, whole organism, S. cerevisiae, single point, plate reader; activity score, % at 18.7 µM; S. cerevisiae UUG-firefly luciferase reporter, luminescence/redox ratio; hit rate 0.13% among 350,000;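 active = replicate mean at a twofold rise or more, about +100% in these data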;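 also: firefly luciferase made from a UUG start codon reports start codon fidelity; reporter light over untreated wells divided by growth signal over untreated wells; some hits fall short of that in this replicate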
# PABP polyA inh: PABP poly(A) RNA binding inhibitors, primary screen, biochemical, fluorescence polarization, uHTS. inhibition, % at 35 µM. hit rate 1% among 290,000. AID 2014, 2009;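 active = 50% or more with normal probe brightness, or confirmed in later tests; inconclusive = above 50% with abnormal brightness, or retests that disagree; inactive = below 50% or failed in later tests; about a fifth of its hits are not listed in these tables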;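 also: calls also rest on retests at 20 µM and on dose response follow-up; controls were probe without protein and protein plus probe with vehicle; some compounds called inactive have numbers as strong as hits; many hits fall short of the cut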
# MT1-MMP act inh: blockers of MT1-MMP proenzyme processing, primary screen, HT1080 RFP-PRO-GFP cells, GFP/RFP fluorescence. Matrix metalloproteinase-14 (Homo sapiens), P50281. GFP/RFP ratio fluorescence, overnight; percent of plate control window, DMSO zero. hit rate 0.061% among 360,000. GFP/RFP ratio change, % at 20 µM;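 active = GFP/RFP ratio change of at least 30% with cell ATP level not reduced by more than half and red fluorescence within 50% of control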; also: strong numbers were not always called active
#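 system = RFP-PRO-GFP reporter HT1080 cells | dosing = 20 µM single dose, 1% DMSO | timing = overnight cell settling, then overnight compound exposure, 37 °C, 5% CO2 | read-out basis = GFP/RFP fluorescence ratio | controls = DMSO and RFP-L50D-GFP cell wells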
# Rce1 inhib: yeast Rce1p protease inhibitors, primary screen, biochemical, fluorescence, cell-free homogeneous | CAAX prenyl protease 2 (Saccharomyces cerevisiae (strain ATCC 204508 / S288c)), Q03530 | yeast membranes, quenched prenylated peptide cleavage fluorescence | calls only | hit rate 0.27% among 290,000;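 active = fall in fluorescence gain of 50% or more versus controls, with final raw signal at or below 3038400; inconclusive = same 50% fall but final raw signal above 3038400; inactive = fall in fluorescence gain under 50%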;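 also: plate controls were neutral control wells for no effect and wells lacking membranes for full effect; tested at 10 µM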
# Target sequence (Q03530 whole entry, looked up): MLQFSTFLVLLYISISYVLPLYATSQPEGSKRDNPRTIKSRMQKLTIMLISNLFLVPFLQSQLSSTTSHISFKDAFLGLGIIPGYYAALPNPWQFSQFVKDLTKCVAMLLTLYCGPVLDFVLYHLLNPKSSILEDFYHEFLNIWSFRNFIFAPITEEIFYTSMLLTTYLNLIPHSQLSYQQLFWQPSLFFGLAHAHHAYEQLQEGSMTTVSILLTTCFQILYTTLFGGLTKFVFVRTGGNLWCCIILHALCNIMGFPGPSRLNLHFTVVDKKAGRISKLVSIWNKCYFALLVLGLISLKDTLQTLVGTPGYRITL
# eIF4H FP inh: human eIF4H binding inhibitors, primary screen, translation initiation inhibitor project, biochemical, uHTS, fluorescence polarization; eIF4H fluorescence polarization binding assay; inhibition, % at 35 µM; AID 2012, 2009; hit rate 0.94% among 290,000; Eukaryotic translation initiation factor 4H (Homo sapiens), Q15056;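 active = 50% or more with normal probe brightness, or confirmed in later tests; inconclusive = above 50% with abnormal brightness, or retests that disagree; inactive = below 50% or failed in later tests; about a fifth of its hits are not listed in these tables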;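 also: calls also rest on retests at 20 µM and on dose response follow-up; 0% = protein and probe with vehicle and 100% = probe without protein; strong numbers were not always called active; many hits fall short of the cut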
# Env fusion inh: inhibitors of HIV-1 Env-driven cell-cell fusion, primary screen, HeLa-JRFL effector, CEM21 target cells, luciferase. AID 651610, 2012. hit rate 1.1% among 360,000. inhibition, % at 12.3 µM;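 active = mean replicate inhibition score of at least 50 and every replicate individually at or above 50; inconclusive = only one of the two criteria met; inactive = mean below 50 and not all replicates reaching 50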;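 also: 0% = plate neutral controls and 100% = maraviroc near 300 nM; one replicate is shown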
# eIF4H FP inh retest: also measured in eIF4H FP inh; calls as there; inhibition, %; compound at 20 µM; confirmation average;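 mean of two retest wells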
# PABP polyA inh retest: second read-out of PABP polyA inh, no call of its own (marks repeat the call); inhibition, %; compound at 20 µM; confirmation repeats;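 mean of two retest wells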
# MT1-MMP act inh RFP: recorded beside MT1-MMP act inh, whose call it bears; RFP signal change, %; measured here: RFP expression control read;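 0 = vehicle wells; hits needed this value within 50% of zero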
# Starred values were filed as active, the others as inactive; i = inactive; ? = inconclusive; nt = no result given. A portion of the library (hit frequency here may not be typical).
SMILES,CSC inhib,Yeast UUG start,PABP polyA inh,MT1-MMP act inh,MT1-MMP act inh RFP,Rce1 inhib,eIF4H FP inh,Env fusion inh,others
COc1cccc(NC(=O)CSc2ncnc3c2oc2ccccc23)c1,11,-16,-4,3,-7,i,-2,-2,
O=C(CCn1c(=O)oc2ccccc21)NCCC1=CCCCC1,-19,nt,1,3,7,i,9,2,
COc1cc2c(cc1OC)C(c1ccc(Cl)cc1)CC(=O)N2 (stereo not drawn),-13,-13,3,4,-2,i,-3,6,
Cc1nc(-c2ccc(Cl)cc2)sc1C(=O)NN,21,-14,-4,1,-2,i,-6,20,
CSc1ccccc1-n1nnnc1SCC(=O)NCc1cccs1,-7,-7,6,-4,-1,i,-2,nt,
COc1cc(NC(C)=O)ccc1NC(=O)c1cc2ccccc2o1,-4,-13,-15,1,1,i,-8,-30,
O=c1[nH]cnc2scc(C3COc4ccccc4O3)c12 (stereo not drawn),-10,14,-10,5,4,i,-4,nt,
COc1ccc(CNC(=S)Nc2cc(C)ccc2C)cc1,-3,-31,3,0,-3,i,-2,nt,
O=C(CSCc1ccccc1)Nc1ccc(S(=O)(=O)Nc2ncccn2)cc1,-5,-10,-6,2,4,i,-18,15,
CCOC(=O)C1(CCCc2ccccc2)CCN(C(=O)C2CCCO2)CC1 (stereo not drawn),0,3,-9,1,-2,i,-5,29,
O=C(COC(=O)C1CC(=O)N(c2ccccc2)C1)c1ccccc1 (stereo not drawn),nt,-10,6,1,2,i,0,-2,
Cc1ccccc1OCC(=O)N/N=C1\CCOc2c(C)cccc21,-6,nt,-2,1,-4,i,2,nt,
CC(C)(C)NCc1cccn1-c1sc2c(c1C#N)CCCC2,8,-9,4,5,2,i,-10,-38,
O=C(Nc1ccc2c(c1)Cc1ccccc1-2)c1ccco1,10,-15,-6,9,5,i,-3,-244,
O=C(NCc1ccco1)C1CCCN1S(=O)(=O)c1ccccc1C(F)(F)F (stereo not drawn),4,-12,-8,-5,-1,i,3,5,
CSc1nc2c(c(=O)[nH]1)C(c1ccc(Br)cc1)CC(=O)N2 (stereo not drawn),-2,-5,39,-1,-2,i,-5,8,
COc1ccc(N2CCN(C(=O)Cn3nnc(-c4ccc(OC)c(OC)c4)n3)CC2)cc1,-9,-21,8,-5,0,nt,-2,nt,
COc1ccc(CN2CCC(c3nc4ccc(Cl)cc4[nH]3)CC2)cc1,-5,-19,-2,9,6,i,0,-8,
Cc1cccc2sc(N(CCCN(C)C)C(=O)c3sc4ccccc4c3Cl)nc12,-5,0,13,0,0,nt,-5,-17,
CC(=O)c1sc(NCc2ccc(C)cc2)nc1C,-4,-22,0,-4,-3,nt,5,-15,

# Filtered by structure: the compounds so far with four or more nitrogen atoms
SMILES,CSC inhib,Yeast UUG start,PABP polyA inh,MT1-MMP act inh,MT1-MMP act inh RFP,Rce1 inhib,eIF4H FP inh,Env fusion inh,others
CSc1ccccc1-n1nnnc1SCC(=O)NCc1cccs1,-7,-7,6,-4,-1,i,-2,nt,
O=C(CSCc1ccccc1)Nc1ccc(S(=O)(=O)Nc2ncccn2)cc1,-5,-10,-6,2,4,i,-18,15,
COc1ccc(N2CCN(C(=O)Cn3nnc(-c4ccc(OC)c(OC)c4)n3)CC2)cc1,-9,-21,8,-5,0,nt,-2,nt,

# Among those listed so far, three contain an aryl thioether with sulfur outside any ring:
SMILES,CSC inhib,Yeast UUG start,PABP polyA inh,MT1-MMP act inh,MT1-MMP act inh RFP,Rce1 inhib,eIF4H FP inh,Env fusion inh,others
COc1cccc(NC(=O)CSc2ncnc3c2oc2ccccc23)c1,11,-16,-4,3,-7,i,-2,-2,
CSc1ccccc1-n1nnnc1SCC(=O)NCc1cccs1,-7,-7,6,-4,-1,i,-2,nt,
CSc1nc2c(c(=O)[nH]1)C(c1ccc(Br)cc1)CC(=O)N2 (stereo not drawn),-2,-5,39,-1,-2,i,-5,8,

# The main list resumes, repeating the six entries before the break.
SMILES,CSC inhib,Yeast UUG start,PABP polyA inh,MT1-MMP act inh,MT1-MMP act inh RFP,Rce1 inhib,eIF4H FP inh,Env fusion inh,others
O=C(NCc1ccco1)C1CCCN1S(=O)(=O)c1ccccc1C(F)(F)F (stereo not drawn),4,-12,-8,-5,-1,i,3,5,
CSc1nc2c(c(=O)[nH]1)C(c1ccc(Br)cc1)CC(=O)N2 (stereo not drawn),-2,-5,39,-1,-2,i,-5,8,
COc1ccc(N2CCN(C(=O)Cn3nnc(-c4ccc(OC)c(OC)c4)n3)CC2)cc1,-9,-21,8,-5,0,nt,-2,nt,
COc1ccc(CN2CCC(c3nc4ccc(Cl)cc4[nH]3)CC2)cc1,-5,-19,-2,9,6,i,0,-8,
Cc1cccc2sc(N(CCCN(C)C)C(=O)c3sc4ccccc4c3Cl)nc12,-5,0,13,0,0,nt,-5,-17,
CC(=O)c1sc(NCc2ccc(C)cc2)nc1C,-4,-22,0,-4,-3,nt,5,-15,
O=c1[nH]c2cc3c(cc2cc1CN(Cc1cccnc1)Cc1nnnn1Cc1ccco1)OCCO3,-2,-9,89*,-20,8,i,71*,nt,
CCCS(=O)(=O)c1cnc(C2COc3ccccc3O2)nc1N (stereo not drawn),?,-84,5,7,5,i,-5,49,
CN1C(=O)c2ccc(NC(=O)C3CCCCC3)cc2C1=O,-2,-36,11,2,2,i,-4,nt,
O=C(O/N=C\c1ccc(N2CCCCC2)c([N+](=O)[O-])c1)c1c(F)cccc1F,-22,12,-4,1,1,i,-14,nt,
C=C(C)CNC(=S)NNC(=O)CCn1c2cc(Cl)ccc2c2ccc(Cl)cc21,46,-38,-6,1,0,i,5,-10,
CCC1(CC)NC(=O)N(CC(=O)OCC(=O)Nc2ccc(C(F)(F)F)cc2)C1=O,-10,0,2,5,2,i,6,13,
Cc1cccc(C(=O)Nc2nnc(SCC(=O)NCc3ccco3)s2)c1,-7,-6,-9,-3,-3,i,1,-50,
COc1ccc(OC)c(NC(=O)CN(c2ccc(C)cc2)S(=O)(=O)c2c(C)noc2C)c1,8,3,-6,5,-8,i,-8,nt,
CCOC(=O)c1c(NC(=O)CNCC(O)CO)sc(C)c1C (stereo not drawn),19,-10,-11,0,-2,i,-2,nt,
CC(C(=O)Nc1ccc2c(c1)OCCO2)c1ccc([N+](=O)[O-])cc1 (stereo not drawn),5,nt,-8,0,-2,i,2,-2,
COc1ccc(OCc2cc(C(=O)N(C)CC3CCCCO3)no2)c(Cl)c1 (stereo not drawn),-4,-6,-12,-4,-3,i,-1,-13,
O=C(CSc1ncn[nH]1)Nc1ccc(S(=O)(=O)N2CCCC2)cc1,11,-13,3,0,0,i,0,nt,
COc1ccccc1N1CCN(C(=O)c2oc3c(c2C)C(=O)CC(C)(C)C3)CC1,-18,1,-2,-2,-1,i,2,12,
Cc1ccc(-c2cc(C(=O)NCC3CCCO3)c3ccccc3n2)cc1C (stereo not drawn),-2,nt,4,-1,0,i,-8,12,
CC(C)(CN1CCN(Cc2ccccc2)CC1)NS(=O)(=O)c1ccccc1,76*,4,-1,1,-5,i,-1,-13,
C=CCNS(=O)(=O)c1sccc1/C=N/O,-15,-20,-8,0,2,i,-8,-35,
Nc1nonc1-n1nnc(C(=O)N/N=C/c2cccc(Cl)c2Cl)c1CN1CCCC1,5,-10,5,0,1,nt,-1,-3,
COc1ccc(/C=N/NC(=O)CSc2ccccn2)cc1OC,5,2,2,3,0,i,-4,3,
CCOC(=O)c1cnc2c(ccc3ccccc32)c1NCCN(C)C,0,1,6,nt,nt,i,-2,-5,
CCN(CC)S(=O)(=O)c1cccc(C(=O)N/N=C2\CC(=O)CC(C)(C)C2)c1,-3,7,2,-2,0,i,9,-2,
CN(C1CC(C)(C)N(O)C(C)(C)C1)S(=O)(=O)CC12CCC(CC1=O)C2(C)C (stereo not drawn),8,-12,-6,-4,3,i,47,11,
CC(C)(C)c1ccc(/C=C2\Oc3c(ccc(O)c3CN3CCN(CCO)CC3)C2=O)cc1,-8,-11,76,-5,0,i,101,5,eIF4H FP inh retest=23;PABP polyA inh retest=16
CCC(CC)CN1CCC(CN2C(=S)NC[C@@H]2CC(C)C)CC1,nt,1,nt,5,3,nt,nt,?,
CCN1C(=NCC(C)C)N[C@@H](CCc2ccccc2)[C@H](C(=O)NCC(C)C)[C@H]1C,-1,-3,16,3,1,i,-8,nt,
CCOc1cccc(CNCCO)c1OCc1ccc(Cl)cc1Cl,nt,nt,-1,1,2,i,-13,nt,
CN(CC(=O)NC1CCCCC1)S(=O)(=O)c1cccc2nsnc12,-4,-15,-1,-2,5,i,-8,17,
COc1cc(Cl)c(CN2CCCC(CO)(Cc3cccc(Cl)c3)C2)cc1OC (stereo not drawn),8,9,-4,-3,-2,i,-7,9,
CCN1CCN(CC(=O)Nc2cc(S(=O)(=O)N3CCCCC3)ccc2Cl)CC1,5,-11,nt,-4,1,nt,nt,-7,
CCOc1cc(C2NC(=O)c3ccccc3O2)ccc1OC(C)C (stereo not drawn),-17,-17,2,-1,-10,i,-4,13,
CCCNS(=O)(=O)c1ccc2c(c1)n(C)c(=O)n2C,-5,-4,8,3,4,i,3,2,
COc1cc(NC(=O)CCc2ccccc2)c(C(=O)O)cc1OC,3,-18,0,1,1,i,-4,nt,
O=C1c2ccccc2S(=O)(=O)c2cc(N3CCOCC3)ccc21,-19,-17,nt,-38,-7,i,nt,?,
O=C(COC(=O)c1ccccc1OCC(=O)Nc1ccc(Br)cc1)Nc1ccccc1,5,nt,-5,2,2,i,-10,-26,
S=C(NCc1ccco1)N1CCN(C/C=C/c2ccccc2)CC1,-5,nt,-8,2,-1,i,-9,9,
O=C(CNC(=O)c1ccc(Br)o1)NCc1ccc(F)cc1,4,-10,6,2,5,i,-4,-1,
N#Cc1ccc(Nc2ccccc2)c(N)c1,-7,-13,6,13,9,i,-1,nt,
COc1ccc(Cc2nnc(N/N=C/c3ccc(C)o3)[nH]c2=O)cc1,-1,nt,-6,4,4,i,6,-12,
CCc1cc(=O)oc2c(C)c(OC(C)C(=O)N3CCC[C@@H]3C(=O)O)ccc12 (stereo partly drawn),-6,-3,2,-1,0,nt,-7,nt,
O=C(c1ccco1)N1CCN(C(=O)c2ccccc2OCc2ccccc2)CC1,-11,14,nt,-1,-1,nt,nt,nt,
Cc1cccc(N2CCN(C(=O)CCn3c(=O)[nH]c4ccsc4c3=O)CC2C)c1 (stereo not drawn),-3,-13,14,4,-1,i,-13,11,
O=C(O)CCCCCNCc1c(Cl)cccc1Cl,-15,nt,22,4,5,i,27,18,
COc1ccccc1-c1ccc2c(c1)C(C)(Cc1ccc(Cl)c(Cl)c1)C(=O)N2 (stereo not drawn),nt,0,nt,0,-4,nt,nt,100*,
